Assay outcomes from PubChem.
ALR H2O2 inh = blocks human ALR sulfhydryl oxidase activity; inhibition, % (no concentration beside the values); P55789; 290,000 compounds, 3.8% hits; purified ALR, DTT oxidation, H2O2 HRP-luminol luminescence; AID 485317;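 active = mean and each replicate at 75% or more; inconclusive = only one of the two met; inactive = neither met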;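 note: stock transfer was 7.5 nL into about 7.5 µL; 0% = neutral wells and 100% = wells with inactivated enzyme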
Target sequence (P55789 whole entry, looked up): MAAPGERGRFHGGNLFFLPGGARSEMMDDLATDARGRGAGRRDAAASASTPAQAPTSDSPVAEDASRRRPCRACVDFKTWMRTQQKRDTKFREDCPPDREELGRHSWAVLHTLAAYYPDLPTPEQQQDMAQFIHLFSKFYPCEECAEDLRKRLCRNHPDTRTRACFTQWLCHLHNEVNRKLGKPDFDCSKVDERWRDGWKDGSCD
RanGTP-Impb inh = inhibitors of RanGTP-importin-beta interaction, primary screen, biochemical, FRET, CFP-Ran, YFP-importin-beta, homogeneous; cell-free CFP-Ran/YFP-importin-beta FRET ratio; inhibition, % (test concentration not listed); 300,000 compounds, 1.1% hits;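 active = most replicates above 15%; inconclusive = exactly half above 15%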;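 note: 0% = DMSO wells and 100% = Ran loaded with GDP instead of GTP; wells of about 40 µL received 100 nL stock; the first replicate is given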
Calb FLC = affects C. albicans growth with fluconazole | 300,000 compounds, 0.57% hits | growth inhibition, % (concentration not given with the values) | C. albicans CaCi-2 (fluconazole-resistant clinical isolate) + fluconazole, Alamar Blue growth, 48 h | AID 1979;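 active = most replicates above 75%; inconclusive = exactly half above 75%; inactive = most below 75%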;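 note: all wells also contain fluconazole at 8 µg/ml as a sub-toxic cotreatment; 0% = median of DMSO wells and 100% = median of geldanamycin control wells; wells of about 8 µL received 7.5 nL stock; the first replicate is given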
Beta cell apopt = beta cell apoptosis inhibition; INS-1E cytokine-induced death, ATP luminescence, 48 h; percent of positive-control rescue, neutral wells zero; protection from apoptosis, % (no concentration beside the values); 300,000 compounds, 0.8% hits;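 active = all replicates at 75% or more, or half of them and the mean; inconclusive = half reach 75% but not the mean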;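 note: 0% = cytokine-treated negative control wells and 100% = positive control rescue; higher means more ATP so stronger rescue from cytokine killing; wells of about 40 µL received 100 nL stock; the first replicate is given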
T cruzi inh = blocks replication of Trypanosoma cruzi; inhibition, % (no concentration beside the values); T. cruzi beta-gal in NIH3T3, luminescence, 90 h; 300,000 compounds, 1.4% hits; AID 1885;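 active = mean inhibition across valid replicates above about 55%, limit read from the data; inconclusive = mean below that limit but half or more replicates reach it; inactive = mean below it, under half of replicates reach it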;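 note: signal also drops with host cell toxicity which is not excluded here; 0% = plate median of DMSO wells and 100% = zero luminescence signal; higher percent means less beta-gal luminescence so fewer parasites; stock transfer was 50 nL into about 50 µL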
FGF22 binding = FGF22 (human) thermal shift binding | 340,000 compounds, 1.5% hits | Q9HCT0 | calls only at 9.99 µM | recombinant FGF22 thermal shift, SYPRO orange fluorescence; percent of sucrose octasulfate shift, DMSO zero;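 active = melting point raised past a set limit in the mean and every replicate; inconclusive = no clear call; three in four hits are not shown here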
Target sequence (Q9HCT0 whole entry, looked up): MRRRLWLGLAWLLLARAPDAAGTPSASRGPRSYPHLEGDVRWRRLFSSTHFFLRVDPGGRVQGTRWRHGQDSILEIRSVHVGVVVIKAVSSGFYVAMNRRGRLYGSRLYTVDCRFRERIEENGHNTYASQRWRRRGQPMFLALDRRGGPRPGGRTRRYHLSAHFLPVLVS
MLL AF4-AF9 inh = blocks AF4 peptide binding to human AF9; 350,000 compounds, 0.47% hits; AlphaScreen, biotin-AF4 peptide binding to FLAG-AF9; AID 651704; inhibition, % at 10 µM;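 active = every replicate reaching a set inhibition limit, whatever the replicate mean, cut at about 25% in these data; inconclusive = mean inhibition reaches that limit but some replicates miss it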;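 note: 0% = plate neutral control median and 100% = total signal loss; the record names both 10 and 1 µM as test concentration; the first replicate is given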
Target sequence (P42568 whole entry, looked up): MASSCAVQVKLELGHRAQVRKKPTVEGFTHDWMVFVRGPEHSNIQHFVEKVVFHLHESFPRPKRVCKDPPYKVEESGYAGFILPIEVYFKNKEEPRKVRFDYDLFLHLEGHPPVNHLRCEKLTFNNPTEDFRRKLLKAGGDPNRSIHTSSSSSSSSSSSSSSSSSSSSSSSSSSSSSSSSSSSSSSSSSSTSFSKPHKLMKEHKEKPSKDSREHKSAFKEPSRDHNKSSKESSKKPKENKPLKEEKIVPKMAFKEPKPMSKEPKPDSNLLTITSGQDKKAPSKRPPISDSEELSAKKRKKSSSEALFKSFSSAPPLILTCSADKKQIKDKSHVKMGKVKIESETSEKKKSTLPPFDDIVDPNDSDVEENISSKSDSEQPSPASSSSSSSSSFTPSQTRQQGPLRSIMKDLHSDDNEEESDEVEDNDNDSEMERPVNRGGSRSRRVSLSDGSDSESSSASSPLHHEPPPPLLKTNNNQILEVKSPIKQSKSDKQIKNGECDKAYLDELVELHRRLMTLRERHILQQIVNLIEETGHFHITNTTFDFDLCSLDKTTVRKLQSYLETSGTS
Ecoli rRNA inh = inhibits bacterial ribosomal RNA function over humanized ribosomes. E. coli WT GFP vs humanized-ribosome RFP mutants, fluorescence, 24 h; active compounds read low; DMSO median 0, no signal -100. GFP signal change (wild-type ribosome), % (test concentration not listed). 350,000 compounds, 1.6% hits. AID 720706;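 active = significant combined selectivity score with lowered wild-type GFP, culture density cut under 30%, mutant RFP and density less affected; inactive = any of these conditions unmet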; note: one replicate is shown; some compounds called inactive have numbers as strong as hits
Ecoli rRNA inh OD600 = recorded beside Ecoli rRNA inh, whose call it bears; OD600 change, %; measured here: OD600 growth;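 optical density of the mix in the first replicate; 0 = DMSO median and -100 = no signal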
Ecoli rRNA inh RFP = second read-out of Ecoli rRNA inh, no call of its own (marks repeat the call); RFP signal change, %; measured here: RFP humanized mutant strains;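 first replicate; 0 = DMSO median and -100 = no signal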
Numbers without * were called inactive; i = inactive; ? = inconclusive; . = no result given; + = active, no number. An excerpt; rates above refer to the full screens.

| Molecule | ALR H2O2 inh | RanGTP-Impb inh | Calb FLC | Beta cell apopt | T cruzi inh | FGF22 binding | MLL AF4-AF9 inh | Ecoli rRNA inh | Ecoli rRNA inh OD600 | Ecoli rRNA inh RFP |
| --- | --- | --- | --- | --- | --- | --- | --- | --- | --- | --- |
| CCOC(=O)C(Cc1c[nH]c2ccccc12)NC(=O)c1ccccc1Br (stereo not given) | 3 | 1.1 | -1 | -10 | -8 | i | -0.2 | 1 | 0 | -0.8 |
| Cc1cccc2sc(NNC(=O)C3COc4ccccc4O3)nc12 (stereo not given) | 100* | -2.8 | 2 | -2 | -6 | i | 6.9 | -59 | -76 | -18 |
| O=C(CSc1ncc(-c2ccccc2)nn1)NCc1ccco1 | 12 | -0.9 | -21 | . | -18 | . | . | . | . | . |
| Cn1c(=O)c2c(ncn2CC(O)CNc2ccc(F)cc2)n(C)c1=O (stereo not given) | 37 | -5.9 | 4 | 1 | -16 | i | -6.1 | -27* | 9.1* | 3.1* |
| CCOC(=O)C1CCCN(c2c(NCCc3ccccc3)c(=O)c2=O)C1 (stereo not given) | -24 | -0.2 | -6 | -3 | 5 | i | 7.3 | 2 | 13 | 3.6 |
| C/C(=C\c1ccccc1F)C(=O)c1c(C)cc(C)[nH]c1=O | -4 | 3.1 | -1 | -7 | -9 | i | -7.5 | 6 | 10 | -1.3 |
| O=C1CCCc2c1cc(C(=O)NCCCN1CCOCC1)c(=O)n2-c1ccc(Cl)cc1 | -57 | -6.9 | -2 | -3 | 18 | i | -1.7 | 9 | 12 | -0.4 |
| Cc1nc(C)c(C(=O)N(c2ccccc2F)C(C(=O)NCC2CCCO2)c2ccccc2)s1 (stereo not given) | . | 0.4 | 2 | -2 | -1 | i | 4.6 | 2 | 8 | 0.3 |
| O=S(=O)(c1ccc(NCc2ccc(F)cc2)nc1)N1CCCC1 | -3 | -1.6 | -16 | . | -18 | i | 1.6 | -4 | -1 | -2.9 |
| CCN(CC)CCNC(=O)c1ccc(Cl)c(S(=O)(=O)Nc2ccccc2OC)c1 | -5 | 3.4 | -3 | -2 | 34 | . | . | . | . | . |
| CCCOC(=O)CSC1=C(C#N)C(c2ccccc2OCC)C(C#N)C(=O)N1 (stereo not given) | 42 | 21* | 5 | -3 | 28 | . | . | . | . | . |
| Cc1ccc(C)c(COc2coc(CN3CCN(C(=O)c4ccco4)CC3)cc2=O)c1 | . | 3.3 | 14 | . | -5 | i | 0.4 | -3 | -8 | -1.6 |
| CCOC(=O)Cn1cnc2c(nnn2Cc2ccc(Cl)cc2)c1=O | -1 | 0.2 | 14 | -1 | 2 | . | . | . | . | . |
| COc1ccc(S(=O)(=O)N2c3ccccc3OCC2c2ccccc2)cc1 (stereo not given) | . | 2.7 | 24 | 34 | 0 | . | . | . | . | . |
| CC1(c2ccc3ccccc3c2)NC(=O)N(CC(=O)N2CCN(c3ccccc3O)CC2)C1=O (stereo not given) | -4 | 3.7 | 1 | 5 | 4 | i | -0.8 | -20* | -12* | 2.0* |
| Nc1ccc(/C=C/C(=O)c2ccco2)cc1 | 99* | -51 | -33 | 3 | -11 | i | 3.0 | 9 | 10 | -1.8 |
| COc1cccc(/C=N/NC(=S)Nc2cccc(C(=O)O)c2)c1O | 69 | . | . | 10 | 19 | . | -3.3 | 1 | -2 | -0.7 |
| CCOC(=O)c1c(C)[nH]c(C(=O)COC(=O)C(C)Oc2ccc(Cl)cc2Cl)c1C (stereo not given) | -13 | -1.7 | 38 | 2 | -21 | i | -5.2 | 9 | 7 | -0.8 |
| CCc1cc(=O)oc2cc(OC(C)C(=O)NCC3CCC(C(=O)O)CC3)c(Cl)cc12 (stereo not given) | . | -3.9 | -6 | -6 | 5 | i | 0.0 | 1 | 5 | 1.8 |
| COc1ccc(C2CC(c3ccccc3)=NN2C(=O)COC(=O)c2ccc(Cl)nc2)cc1 (stereo not given) | -17 | -2.2 | -2 | -6 | 11 | . | . | . | . | . |
| CCC1(CC)NC(=O)NC1=O | -35 | 2.3 | -14 | -3 | 1 | . | . | . | . | . |
| CNC(=O)/C(C#N)=C/c1cn(CC(=O)NCc2ccco2)c2ccccc12 | -14 | 2.4 | 3 | 0 | 10 | i | -2.8 | 13 | 4 | 0.5 |
| COC(=O)c1cc(NC(=O)c2ccc([N+](=O)[O-])cc2)c(=O)oc1C | 6 | 18* | 0 | -5 | -20 | i | -4.6 | 8 | 8 | 1.7 |
| Cc1cccc(Cn2cnc3c(nnn3Cc3ccc(F)cc3)c2=O)c1 | -13 | 0.0 | -22 | 7 | 18 | . | . | . | . | . |
| CN1CCN(C(=O)CC23CC4CC(CC(C4)C2)C3)CC1 | -12 | 4.6 | 0 | 3 | 0 | . | . | . | . | . |
| CCOC(=O)c1[nH]c(C)c(C(=O)NC(C)CC)c1C (stereo not given) | . | 4.8 | 2 | 0 | -13 | i | 1.7 | 7 | 13 | 4.0 |
| COC(=O)[C@H](C)NC(=O)Nc1ccc(OC)cc1OC | -4 | -0.7 | -4 | -4 | 8 | . | . | . | . | . |
| O=C(CSc1nc2nc[nH]c2c(=O)[nH]1)NC1CCCCC1 | -3 | ? | 2 | 1 | -4 | . | . | . | . | . |
| Cc1cc(NC(=O)c2ccc(NC(=O)C(C)Oc3ccccc3)cc2)no1 (stereo not given) | -1 | ? | -6 | -8 | -14 | . | . | . | . | . |
| Cc1nc(C(=O)Nc2cccc(Cl)c2)nn1-c1cc(OC(C)C)c(Cl)cc1Cl | . | ? | 23 | -11 | 22 | . | . | -4 | 1 | 7.0 |
| CN(CC(=O)Nc1ccccc1Cl)C1CCS(=O)(=O)C1 (stereo not given) | . | . | . | -5 | . | i | -0.7 | -3 | 13 | -3.2 |
| CN(C)[C@@H](CO)c1nnc([C@H](CC(=O)O)NC(=O)C2CCNCC2)o1 | -9 | -0.4 | -9 | -7 | 10 | i | 2.0 | 20 | 15 | 2.3 |
| Cc1cccc(CC2CC(=O)N(CCc3ccc4c(c3)OCO4)C2=O)c1 (stereo not given) | 5 | 2.2 | -41 | -1 | 11 | i | -2.3 | -4 | -16 | -1.1 |
| CCOC(=O)C1(Cc2cccc(F)c2)CCN(C(=O)C2CCOCC2)CC1 | -3 | -1.1 | 17 | -6 | -2 | i | -23 | 6 | 1 | 4.9 |
| O=C(Cn1cc2c(n1)CCCCC2)Nc1c(F)c(F)cc(F)c1F | -23 | -0.3 | -1 | -2 | 6 | i | -1.1 | 0 | -1 | 0.6 |
| COc1ccccc1CNC(=O)Cn1ccsc1=N | -1 | 20* | -1 | 0 | -17 | i | -1.7 | 12 | 13 | -0.4 |
| O=C(c1ccccn1)N1CCN(C(=O)c2ccccn2)CC1 | 8 | 0.9 | -22 | 2 | -4 | . | . | . | . | . |
| COc1cccc(/C=C2\Oc3ccc(O)cc3C2=O)c1O | 27 | -10 | 64 | 0 | -12 | i | -0.2 | -2 | 2 | 0.2 |
| OCC[C@H]1C[C@H](O)[C@@H](O)[C@]2(CCCc3ccccc3O2)O1 | 59 | . | . | -11 | . | i | 4.6 | 5 | -1 | 8.0 |
| Nc1c(N(CCO)C(=O)COc2ccc(Cl)cc2)c(=O)[nH]c(=O)n1Cc1ccccc1 | . | 4.9 | 18 | -5 | 2 | + | -0.3 | -1 | 2 | -0.1 |
| CCOCCCNC(=O)c1ccc(OC)c(OC2CCN(C(C)C)CC2)c1 | -2 | 6.1 | 1 | -3 | -5 | i | -16 | 0 | 13 | -3.5 |
| Cc1cccc(N2C(=O)C(O)=C(C(=O)c3cccs3)C2c2ccc(Cl)cc2)n1 (stereo not given) | 8 | 3.5 | 44 | 5 | -1 | i | -9.7 | -34* | -23* | 4.3* |
| Cc1cc(Br)ccc1NC(=O)CN1C(=O)C2CC=CCC2C1=O (stereo not given) | . | . | . | 1 | . | i | -0.4 | 2 | -3 | -2.7 |
| CC(=O)Nc1ccc(S(=O)(=O)NNC(=O)c2ccc3c(c2)OCO3)cc1 | 15 | 3.7 | 0 | -4 | 3 | i | -0.1 | 24 | 13 | 2.7 |
| COc1ccc(OC)c(CN2CCN(C(=O)CN3C(=O)NC4(CCCC4)C3=O)CC2)c1 | -14 | 3.1 | 1 | 0 | -3 | i | -16 | 0 | -1 | -1.9 |
| O=C(Nc1ccccc1)c1ccc(-c2ccc(Br)cc2)o1 | 7 | ? | -9 | 4 | 22 | . | . | . | . | . |
| CN1CCN(C2CC(=O)N(CCc3ccccc3)C2=O)CC1 (stereo not given) | -1 | -3.8 | -2 | 2 | 5 | i | 1.2 | 9 | 7 | -0.2 |
| C=CCN(C(=O)c1oc2c(Cl)cc(C)cc2c1C)C1CCS(=O)(=O)C1 (stereo not given) | -5 | -2.1 | 9 | 4 | 11 | i | -3.3 | -14 | -28 | 1.1 |
| Cc1cc(C)c(NC(=O)CSc2nc3ccncc3[nH]2)c(C)c1 | 0 | -0.2 | -1 | -2 | -3 | i | -2.6 | 5 | 6 | 0.6 |
| Cc1cccc(C)c1OCc1cc(C(=O)N2CCC(c3ccncc3)CC2)no1 | -4 | -0.4 | -4 | . | 19 | i | 2.3 | -13 | -38 | -1.9 |
| O=C(COC(=O)CCc1nc2ccccc2s1)Nc1ccc(Cl)cn1 | -6 | 0.8 | 6 | 5 | -5 | i | 0.0 | 9 | 9 | 5.5 |
| CC1Cc2ccccc2N1C(=O)c1cnc2sccn2c1=O (stereo not given) | -7 | -3.2 | -7 | -7 | -21 | i | 2.3 | -5 | 8 | -4.0 |
| CNC(=O)CSc1nnc(-c2ccco2)n1-c1cccc(OC)c1 | -7 | 1.6 | 4 | -5 | -3 | i | -0.6 | 19 | 16 | -0.6 |
| O=C(COc1ccc(S(=O)(=O)N2CCOCC2)cc1)Nc1ccc(Cl)c(C(F)(F)F)c1 | 8 | -0.8 | -13 | . | -4 | i | -6.2 | -18 | -22 | 2.5 |
| CC(=O)Cn1c2ccccc2n2nc(CCC(=O)O)c(=O)nc12 | 2 | 3.1 | 18 | 2 | -8 | i | -0.4 | 13 | 8 | 1.5 |
| CCn1ccc(C(=O)Nc2ccc(Cl)cn2)n1 | . | -0.9 | -6 | 4 | 4 | i | 0.0 | 5 | 9 | -6.3 |

Further results
| Molecule | ALR H2O2 inh | RanGTP-Impb inh | Calb FLC | Beta cell apopt | T cruzi inh | FGF22 binding | MLL AF4-AF9 inh | Ecoli rRNA inh | Ecoli rRNA inh OD600 | Ecoli rRNA inh RFP |
| --- | --- | --- | --- | --- | --- | --- | --- | --- | --- | --- |
| CC(=O)Nc1cccc(C(=O)NNC(=O)c2ccc(-n3cnnn3)cc2)c1 | 10 | . | . | -1 | . | i | -0.3 | 10 | 22 | -1.9 |
| Cc1nc2cc(NC(=O)NC3CC3)ccc2n1C | 51 | 3.1 | 10 | -3 | -29 | i | -3.0 | 12 | 9 | 1.4 |
| CC(C)C(OC(=O)CN1C(=O)COc2ccccc21)C(=O)NC1CCCC1 (stereo not given) | -3 | -1.2 | 16 | -10 | 19 | . | . | . | . | . |
| CN(CCNC(=O)C1CC(=O)N(C2CCCC2)C1)Cc1ccccc1 (stereo not given) | . | 4.0 | -3 | . | 0 | i | -2.8 | 14 | 19 | -0.8 |
